Screening data deposited in PubChem BioAssay by National Center for Advancing Translational Sciences (NCATS).
D2 ag: Beta-Arrestin HTS for Positive Allosteric Modulators of the Human D2 Dopamine Receptor: Agonists | activation, % (test concentration not listed) | 360,000 tested, 0.084% active | DiscoveRx PathHunter D2 beta-arrestin, luminescence, 90 min; 100% = 57 uM dopamine signal | AID 624465, 2012; in the data active = activation above about 40%; inconclusive = about 15% to 40%; inactive = below about 15%; further: compound concentration not given in the record; the text of the record calls up to 30% inactive
Target sequence (P14416 whole entry, looked up): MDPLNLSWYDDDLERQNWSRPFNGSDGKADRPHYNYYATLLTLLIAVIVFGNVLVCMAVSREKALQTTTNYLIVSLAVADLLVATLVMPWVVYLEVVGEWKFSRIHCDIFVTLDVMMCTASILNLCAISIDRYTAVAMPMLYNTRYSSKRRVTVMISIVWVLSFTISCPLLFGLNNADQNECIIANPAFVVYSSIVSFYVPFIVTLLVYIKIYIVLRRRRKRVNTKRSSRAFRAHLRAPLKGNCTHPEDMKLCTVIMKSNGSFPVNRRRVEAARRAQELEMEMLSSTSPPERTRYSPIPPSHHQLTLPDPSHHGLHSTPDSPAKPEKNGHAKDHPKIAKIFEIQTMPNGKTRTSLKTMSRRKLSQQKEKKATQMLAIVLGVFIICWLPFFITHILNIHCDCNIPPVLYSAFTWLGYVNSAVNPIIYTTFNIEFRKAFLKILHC
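DiscoveRx PathHunter D2 beta-arrestin cells (2,100/well) attached overnight, then compound-stimulated 90 min at 37 C in HBSS/10 mM HEPES/0.1% Tween-20 buffer; beta-galactosidase complementation read by luminescence after 1 h at ambient temperature. Dopamine 57 uM final (EC100) as control.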
D2 PAM: Beta-Arrestin HTS for Positive Allosteric Modulators of the Human D2 Dopamine Receptor: Potentiators | D(2) dopamine receptor (Homo sapiens), P14416 | DiscoveRx D2 beta-arrestin cells, luminescence, 90 min; 100% = 57 uM dopamine signal | 360,000 tested, 0.23% active | potentiation, % (no concentration beside the values) | AID 624464, 2012; active = potentiation of 50% or more; inconclusive = 30% to 50%; inactive = 30% or less;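 further: compound concentration not given in the record; tested on top of an EC20 dose of dopamine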
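PathHunter beta-arrestin assay in DiscoveRx D2 cells. Compounds were added with an EC20 of dopamine (50 nM final) for 90 min at 37 deg C. Luminescence was read 1 h after detection reagent, with 57 uM dopamine as the EC100 control.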
TRPV1 potentiator: HTS Assay for Compounds that Act as Potentiators of the Vanilloid Receptor 1; Transient receptor potential cation channel subfamily V member 1 (Homo sapiens), Q8NER1; TRPV1-expressing cells, Fluo-8 calcium influx, capsaicin EC20 potentiation; host cell line not named in the record; control for the full effect not named in the record; potentiation, % at 8.33 µM; 320,000 tested, 0.02% active; active means potentiation above 80%; inconclusive means 30% to 80%; inactive means below 30%; further: 0% is about no effect
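Fluo-8 calcium influx in TRPV1-expressing cells, kinetic read (ex 480/em 520 nm). Compound added and read 3 min for agonist activity, followed by capsaicin at EC20 final and 2 min further read for enhancement.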
PINK1 modulator: A Quantitative High throughput Screen to Identify Chemical Modulators of PINK1 Expression. PINK1 immunofluorescence, high-content cytometry, 24 h. Potency, µM (series often up to 76.6 µM), for the others: at the top dose activation (PINK1 increase), usual class: activators. 410,000 tested, 0.2% active. AID 624263, 2012; active = well fitted activation curve with a large enough effect; inconclusive = small, poorly fitted or top-dose-only effect; inactive = flat fitted curve, though single readings scatter; cell line not stated here;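 further: potency means the concentration at half of the fitted maximal effect; % of control where 0% means no effect; nearly all actives have a fitted effect of over 65% in size; a mitochondrial uncoupler was the plate control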
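Stable cell line, 250 cells/well, 12 h attachment; compounds pinned at 5 concentrations, 24 h; CCCP control. Fixed with nuclear dye, primary antibodies 12 h at 10 degrees C, secondary plus cell stain; laser-scanning cytometer read.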
Six1-Eya2 inh: qHTS Assay for Inhibitors of the Six1/Eya2 Interaction; Homeobox protein SIX1 (Homo sapiens) + Protein phosphatase EYA2 (Homo sapiens), …; AlphaScreen GST-Six1/His-Eya2 binding, biochemical; hits give low values; control for the full effect not named in the record; activity change, % (concentration not given with the values); 360,000 tested, 0.56% active; AID 651725, 2012; in the data active = activity change below about -65%; inconclusive = about -30% to -65%; inactive = above about -30%; further: on the % scale 0 is the no-effect control and ±100 the full control effect
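GST-Six1 + His-Eya2 (5X stock: 250/500 nM); Tris pH 8.0, 300 mM NaCl, 0.05% BSA, 0.02% Tween 20; GSH donor/Ni acceptor beads; 1 h 37 °C dark; AlphaScreen readout.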
CtBP-E1A blk: qHTS Assay for Inhibitors of the CtBP/E1A Interaction; AID 651724, 2012; activity change, % (no concentration beside the values); 340,000 tested, 0.49% active; AlphaScreen GST-E1A/His-CtBP binding, 1536-well; hits give low values; control for the full effect not named in the record; CtBP / adenovirus E1A interaction (AlphaScreen); in the data active means activity change below about -65%; inconclusive means about -30% to -65%; inactive means above about -30%; further: on the % scale 0 is the no-effect control and ±100 the full control effect; compound concentration not given in the record
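AlphaScreen with 125 nM GST-E1A and 125 nM His-CtBP (5X stocks) in Tris pH 8.0, 300 mM NaCl, BSA, Tween 20, TCEP. Compounds preincubated 2 h at 37 deg C, then glutathione donor/nickel acceptor beads added for 1 h at 37 deg C in dark.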
Sfp inh: qHTS Assay for Inhibitors of Bacillus subtilis Sfp phosphopantetheinyl transferase (PPTase). Potency, µM, for the others: max response, negative = inhibition, actives largely listed as inhibitors. 310,000 tested, 3.5% active. Biochemical Sfp PPTase activity, qHTS; active means well fitted inhibition curve with a large enough effect; inconclusive means small, poorly fitted or top-dose-only effect, or another doubt; inactive means no such curve, though single readings can be large or run the other way;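 further: the enzyme is Sfp with the accession as filed and its product quenches rhodamine fluorescence; potency means the concentration at half of the fitted maximal effect; 0% = enzyme reaction without inhibitor and -100% = no enzyme wells; top concentration of the series not given in the record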
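After 15 min at room temperature with compound, 15 nM Sfp received 5 uM rhodamine-CoA plus 12.5 uM BHQ-2-ybbR (50 mM Hepes pH 7.6, 10 mM MgCl2). Rate came from the fluorescence difference over 30 min, ex 525/em 598 nm.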
Active calls of the source: *; ? = inconclusive; / = not tested or not shown; & = joins results of further samples; [ ] = dose if it differs, or a comment.

SMILES	D2 ag	D2 PAM	TRPV1 potentiator	PINK1 modulator	Six1-Eya2 inh	CtBP-E1A blk	Sfp inh
COc1ccc2c(c1)c(CC(=O)OCC(N)=O)c(C)n2C(=O)c1ccc(Cl)cc1	-3.9	-9	0	1.3%	8	/	-3%
CSc1ncccc1C(=O)Nc1ccc2nc(C)sc2c1	-2.0	-8	10	-1.6%	-1	-1	15%
N#Cc1nc(-c2ccc(F)cc2)oc1N1CCC(C(N)=O)CC1	-0.5	-5	-26	0.2%	4	/	23%
CCOC(=O)C(CC)Sc1nc2c(cnn2-c2ccccc2)c(=O)[nH]1 (centres undefined)	-5.7	-3	?	6.5%	7	-5	10%
COc1cc(OC)cc(-n2c3nc4ccccc4nc3c3c(=O)n(CC4CCCO4)cnc32)c1 (centres undefined)	-5.2	-3	0	-0.1%	-17	5	-4%
O=C1NC2NC(=O)N(C(Cc3ccccc3)C(=O)O)C2N1 (centres undefined)	-3.2	-6	0	2.6%	2	18	4%
Cc1ccc(OCC(=O)Nc2cc(C(C)(C)C)on2)cc1C	1.2	2	11	2.1%	7	6	45µM*
CC(=O)Nc1ccc(C=NNC(=O)c2ccc(NS(=O)(=O)c3cccs3)cc2)cc1	-7.3	-17	/	-1.6%	?	?	/
Cc1cccc(NC(=O)c2ccc3c(Cl)c4c(nc3c2)CCCC4)n1	-2.7	-10	-33	7.2%	2	/	9%
CCOc1cc(S(=O)(=O)NC2CCCCCC2)ccc1F	-3.4	2	-10	13%	3	14	19%
Clc1cccc(CNc2nnnn2-c2ccccc2)c1	-3.8	-24	2	2.0%	10	-11	2%
CC(=O)c1ccc(S(=O)(=O)N2CCN(C(=O)c3ccccc3Cc3ccccc3)CC2)cc1	0.4	9	7	8.4%	3	7	/
CN(Cc1cccs1)C(=O)c1ccc(S(=O)(=O)N2CCCCC2)cc1	-5.0	-13	-2	0.7%	-1	/	17%
CC(C)N1C(=O)CCC1C(=O)NCc1ccco1 (centres undefined)	-5.3	-8	-1	0.1%	2	1	22%
CN(Cc1ccc(C#CCCO)cc1)CC1CCCN(CCc2ccc(Cl)cc2)C1 (centres undefined)	3.8	-8	-4	21%	-26	/	2%
COc1ccccc1C(=O)Nc1nnc(-c2ccc(F)cc2)s1	-6.6	-6	10	1.1%	1	0	4%
CCOc1ccccc1-n1c(SCC(=O)N2CCOCC2)nnc1-c1ccccn1	-0.5	19	-18	2.0%	-1	0	10%
COc1cc([N+](=O)[O-])ccc1N1C(=O)CC(Sc2nccc(C)n2)C1=O (centres undefined)	-3.1	4	6	1.0%	-2	/	10%
CCN(C(=O)COC(=O)c1ccccc1O)c1cccc2ccccc12	-2.0	-14	/	3.6%	-6	-3	/
CC1C=CCC2C(=O)N(c3cccc(C(=O)Nc4ccc(Br)cc4)c3)C(=O)C12 (centres undefined)	1.0	-17	-7	1.5%	5	-2	-5%
Clc1ccc(OCCn2cnc3ccccc32)cc1	0.5	3	-5	1.0%	7	-7	15%
O=C(O)c1ccc(NS(=O)(=O)c2ccc(N3CCCC3)c([N+](=O)[O-])c2)cc1	-7.9	-8	26	3.0%	-6	/	-27%
CC1CCCCN1C(=S)NCc1ccccc1 (centres undefined)	-6.6	-4	-15	0.9%	6	6	-27%
CC(C)NS(=O)(=O)c1cc(F)ccc1CN1C(=O)c2cccnc2C1=O	0.8	-9	2	-0.2%	-22	?	4%
O=C1CCCCN1CCCC(=O)N1CCCC(Nc2ccc(F)c(F)c2)C1 (centres undefined)	-3.6	-8	-5	-1.3%	4	-4	-3%

New compounds follow
SMILES	D2 ag	D2 PAM	TRPV1 potentiator	PINK1 modulator	Six1-Eya2 inh	CtBP-E1A blk	Sfp inh
NC(=O)c1ncn([C@@H]2O[C@H](CNCc3cccc4c3sc3ccccc34)[C@@H](O)[C@H]2O)n1	-3.0	-5	/	-1.0%	0	0	/
O=C(O)c1ccc(C=C(c2nc3ccccc3s2)c2nc3ccccc3s2)cc1	-11	-28	-1	-1.3%	3	3	-3%
CCOC(=O)c1cc(S(=O)(=O)Nc2ccc(OC)cc2OC)cn1C	2.7	-13	-12	-1.5%	-6	/	10%
O=C(COc1ccccc1[N+](=O)[O-])Nc1cccc(S(=O)(=O)NC2=NCCCCC2)c1	-2.3	-1	-1	?	-1	-12	/
CN(C)S(=O)(=O)c1cc(C(=O)OCCn2cnc3c2c(=O)n(C)c(=O)n3C)ccc1Cl	1.0	-8	7	0.4%	5	4	2%
S=C(NNC(=S)NC1CC2CCC1C2)NC1CC2C=CC1C2 (centres undefined)	-6.6	-14	3	0.6%	-5	-1	-17%
CCC1(c2ccc(F)cc2)NC(=O)N(CC(=O)N2CCc3ccccc32)C1=O (centres undefined)	-5.3	-4	-10	4.7%	-4	6	/
C[C@H]1COc2cc(N3CCN(Cc4ccccc4F)CC3)ccc2S(=O)(=O)N1	/	/	/	1.9%	-1	2	/
COC(=O)c1ccc(/C=N/NC(=S)NCCN2CCOCC2)cc1	2.8	5	-2	0.2%	-4	-5	-11%
C[C@H](NC(=O)[C@@H]1Cc2ccccc2CN1)C(=O)NC1CCCC1	1.9	-1	-17	2.6%	-1	/	6%
CCC(C)Sc1ccc([C@@H]2[C@H]3C(=O)N(CC)C(=O)[C@H]3[C@]3(C(=O)OC)CCCN23)cc1OC (some centres undefined)	-4.9	-9	?	0.7%	-7	-2	/
O=C(O)c1c2c(nc3ccccc13)/C(=C/c1cccc([N+](=O)[O-])c1)CCC2	-5.1	-10	-9	-0.1%	-28	-13	10%
CC(=O)Nc1nnc(SCC(=O)NCCOc2ccccc2)s1	0.7	7	-5	-1.9%	7	5	-11%
CN(C)CCNC(=O)CNC(=S)N(Cc1ccccc1)Cc1ccccc1F	-2.5	-4	-3	-0.5%	4	2	-3%
Cc1ccc(NC(=O)c2cc(S(=O)(=O)N3CCCCC3)ccc2N2CCOCC2)c(C)c1	-0.2	-5	/	-0.5%	1	3	/
COc1ccc(CN2CCN(Cc3c[nH]c4ccccc34)CC2CCO)c(F)c1 (centres undefined)	-1.2	-26	-12	-1.4%	-9	-3	18%
COc1cccc(CN=C2Nc3ccccc3CS2)c1	-1.3	-3	28	1.1%	3	8	2%
COc1cccc(N(CC(=O)N2CCc3ccccc3C2)S(C)(=O)=O)c1	-1.2	10	2	0.4%	2	0	7%
CN(C)c1cc(-c2ccc(C#N)cc2)oc(=O)c1Cl	-4.8	-3	-25	0.5%	-1	/	3%
Cn1c(/N=C/c2cccs2)nc2ccccc21	2.0	-5	5	-3.6%[38.3 µM]	1	4	18%
O=C(NCc1ccco1)c1cccc2c1C(=O)c1ccc(N3CCC(Cc4ccccc4)CC3)cc1S2(=O)=O	-2.8	-7	/	-1.1%	6	8	/
Cc1cc(/C=N/n2c(COc3ccccc3)nc3ccccc3c2=O)c(O)c([N+](=O)[O-])c1	-4.8	-39	27	0.2%	-88*	-80*	-1%
CN(C)S(=O)(=O)c1ccc(N=Cc2c(C(F)(F)F)[nH][nH]c2=O)cc1	-2.3	1	8	0.8%	1	/	10%
Cn1nc(C(=O)Nc2ccc(S(=O)(=O)N3CCCC3)cc2)ccc1=O	-0.9	-15	-10	0.0%	0	3	6%
COc1cc(NC(=O)CCc2c(C)nn(-c3ccc(N4CCOCC4)nn3)c2C)cc(OC)c1OC	-5.2	-12	-6	-0.4%&-0.3%	-2	3	11%

Further structures follow.
SMILES	D2 ag	D2 PAM	TRPV1 potentiator	PINK1 modulator	Six1-Eya2 inh	CtBP-E1A blk	Sfp inh
COc1ccc(CNC(=O)COC(=O)c2sccc2C)cc1OC	6.6	3	/	6.1%	0	-1	/
O=C(CCNc1n[nH]c(=O)[nH]c1=O)N/N=C/c1ccc(C(F)(F)F)cc1	7.3	4	15	-1.5%	-19	7	20%
Cc1cccc(-c2nc3cc(NC(=O)C4CCCO4)ccc3o2)c1 (centres undefined)	0.0	-10	-20	-0.9%	-1	8	8%
COC(=O)Cn1c(=O)c(=O)n(CC(=O)OC)c2ccccc21	-2.8	-1	3	-1.6%	7	1	17%
Cc1ccc(N(CC(=O)NCc2ccc(F)cc2)C(=O)c2ccco2)cc1C	-3.5	-19	-7	2.1%	5	-5	8%
O=S(=O)(c1ccc(Cl)nc1)N1CCc2ccccc21	-0.8	1	7	-0.3%	18	1	17%
O=C(Nc1ccccc1N1CCCC1)C1CCN(S(=O)(=O)c2ccc(F)cc2)CC1	-0.2	-5	-28	-2.3%	-5	24	/
CCCn1nnnc1NCc1ccc(OC)cc1OC	-2.5	-3	-11	1.0%	2	15	6%
CCS(=O)(=O)N1CCCC(C(=O)NCC2CCCO2)C1 (centres undefined)	-4.1	11	-4	-1.7%	-1	9	8%
O=C(c1ccccc1S(=O)(=O)NCC(O)COc1ccc([N+](=O)[O-])cc1)N1CCCCC1 (centres undefined)	-3.0	-6	?	3.2%	1	-3	11%
CC(C)CC(=O)NCCCCc1ccccc1	-1.4	-20	4	0.0%	7	6	-23%
O=C(O)CCCCOn1ccnc1	-1.6	-3	3	1.8%	11	0	-42%
O=[N+]([O-])c1ccc(N2CCSCC2)cc1	-4.1	-3	-8	3.9%	-2	-3	-2%
COc1cccc(/C=N/NC(=O)c2nnn(-c3nonc3N)c2C(C)C)c1OCc1ccc(F)cc1	-2.8	-6	19	9.4%	0	-15	27%

Part of the list above, reduced to D2 PAM, TRPV1 potentiator and CtBP-E1A blk:
| Structure | D2 PAM | TRPV1 potentiator | CtBP-E1A blk |
| --- | --- | --- | --- |
| O=S(=O)(c1ccc(Cl)nc1)N1CCc2ccccc21 | 1 | 7 | 1 |
| O=C(c1ccccc1S(=O)(=O)NCC(O)COc1ccc([N+](=O)[O-])cc1)N1CCCCC1 (centres undefined) | -6 | ? | -3 |
| O=[N+]([O-])c1ccc(N2CCSCC2)cc1 | -3 | -8 | -3 |
